rRNA inh HTS – inhibitors of bacterial rRNA selective over humanized ribosomes | GFP signal change (wild-type ribosome), % (no concentration beside the values) | 1.6% of 350,000 active | E. coli WT GFP vs humanized-ribosome RFP mutants, fluorescence, 24 h; stronger effect = lower value; DMSO median 0, no signal -100 | AID 720706;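 active = significant combined selectivity score with lowered wild-type GFP, culture density cut under 30%, mutant RFP and density less affected; inactive = any of these conditions unmet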; note: one replicate is shown; some compounds called inactive have numbers as strong as hits
AF4-AF9 inh – MLL-AF4/AF9 protein interaction inhibition. P42568. AlphaScreen, biotin-AF4 peptide binding to FLAG-AF9. inhibition, % at 10 µM. 0.47% of 350,000 active. AID 651704;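 active = every replicate reaching a set inhibition limit, whatever the replicate mean, cut at about 25% in these data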;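 note: 0% = plate neutral control median and 100% = total signal loss; the record names both 10 and 1 µM as test concentration; the first replicate is given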
Target sequence (P42568 whole entry, looked up): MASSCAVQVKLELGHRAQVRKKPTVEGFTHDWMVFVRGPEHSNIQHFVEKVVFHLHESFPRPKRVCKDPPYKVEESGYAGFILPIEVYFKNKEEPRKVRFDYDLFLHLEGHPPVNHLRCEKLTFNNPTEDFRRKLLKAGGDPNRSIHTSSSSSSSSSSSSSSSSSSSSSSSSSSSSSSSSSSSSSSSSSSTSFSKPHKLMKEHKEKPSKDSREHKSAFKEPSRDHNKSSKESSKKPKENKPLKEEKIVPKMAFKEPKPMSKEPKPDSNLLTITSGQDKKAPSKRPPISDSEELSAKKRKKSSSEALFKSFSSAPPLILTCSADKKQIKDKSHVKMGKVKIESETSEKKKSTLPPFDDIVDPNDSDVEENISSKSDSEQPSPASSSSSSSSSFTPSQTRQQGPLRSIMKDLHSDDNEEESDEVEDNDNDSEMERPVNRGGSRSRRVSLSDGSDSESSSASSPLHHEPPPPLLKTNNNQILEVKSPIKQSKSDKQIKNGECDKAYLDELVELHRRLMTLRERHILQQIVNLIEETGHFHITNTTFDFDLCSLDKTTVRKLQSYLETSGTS
rRNA inh HTS OD600 – also measured in rRNA inh HTS; calls as there; OD600 change, %; measured here: OD600 growth;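 optical density of the mix in the first replicate; 0 = DMSO median and -100 = no signal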
rRNA inh HTS RFP – also measured in rRNA inh HTS; calls as there; RFP signal change, %; measured here: RFP humanized mutant strains;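 first replicate; 0 = DMSO median and -100 = no signal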
Numbers without * were called inactive.

Start of the data: the first 3 records, ahead of the listing:
SMILES	rRNA inh HTS	rRNA inh HTS OD600	rRNA inh HTS RFP	AF4-AF9 inh
CO[C@@H]1CN(C)C(=O)c2cc(NS(C)(=O)=O)ccc2OC[C@@H](C)N(S(=O)(=O)CC(F)(F)F)C[C@H]1C	1.4	4.4	-0.3	-3.1
CC(=O)N1CC(=O)N2[C@H](CO)[C@H](c3ccc(C#CC(C)C)cc3)[C@H]2C1	2.1	14.8	-3.7	1.0
CO[C@H]1CN(C)C(=O)c2ccc(NS(=O)(=O)c3ccccc3Cl)cc2OC[C@H](C)NC[C@@H]1C	2.1	2.1	-0.5	-1.8

This part in full, from the first entry:
SMILES	rRNA inh HTS	rRNA inh HTS OD600	rRNA inh HTS RFP	AF4-AF9 inh
CO[C@@H]1CN(C)C(=O)c2cc(NS(C)(=O)=O)ccc2OC[C@@H](C)N(S(=O)(=O)CC(F)(F)F)C[C@H]1C	1.4	4.4	-0.3	-3.1
CC(=O)N1CC(=O)N2[C@H](CO)[C@H](c3ccc(C#CC(C)C)cc3)[C@H]2C1	2.1	14.8	-3.7	1.0
CO[C@H]1CN(C)C(=O)c2ccc(NS(=O)(=O)c3ccccc3Cl)cc2OC[C@H](C)NC[C@@H]1C	2.1	2.1	-0.5	-1.8
O=C(C[C@@H]1CC[C@@H]2[C@H](COC[C@H](O)CN2C(=O)c2ccc3c(c2)OCO3)O1)NC1CCC1	2.9	1.2	2.2	-0.7
COc1ccc(NC(=O)Nc2ccc3c(c2)[C@H]2C[C@@H](CC(=O)NCc4ccc5c(c4)OCO5)O[C@@H](CO)[C@H]2O3)cc1	1.5	2.5	-2.3	-1.6
CN(Cc1ccc(Cl)c(Cl)c1)C(C(=O)NCc1ccccc1)c1ccco1 (configuration not stated)	-30.6	-49.6	1.6	-4.5
C[C@H](NC(=O)C[C@H]1CC[C@H]2[C@@H](COC[C@@H](O)CN2C(=O)Nc2ccccc2)O1)c1ccccc1	1.3	16.0	-7.5	-2.3
C[C@@H]1CN([C@H](C)CO)C(=O)Cc2cc(NC(=O)c3ccncc3)ccc2O[C@@H]1CN(C)C(=O)NC1CCCCC1	1.6	1.6	1.9	-1.7
CN(C)CCCNC(=O)c1cccc(-c2cnc3cccnn23)c1	6.5	8.3	-2.2	-5.6
COc1ccc(NC(=O)Nc2ccc3c(c2)CC(=O)N([C@@H](C)CO)C[C@@H](C)[C@H](CN(C)S(=O)(=O)c2cccs2)O3)cc1	-3.7	-9.6	0.5	2.1
CC(C)(C)OC(=O)N1CCCC(C(=O)Nc2cccc(C(=O)NCCCc3ccccc3)c2)C1 (configuration not stated)	-12.1	-20.6	6.6	-2.2
CC1(C(=O)NCc2cccc3ccccc23)CCN1Cc1ccc2ccccc2c1 (configuration not stated)	-6.1	-23.7	2.5	4.2
CCOC(=O)[C@]12CCCC=C1N(Cc1ccco1)C(=O)[C@H](CC(=O)N1CCCC1)C2	-8.7	-2.0	-8.8	5.9
CN(C)c1ccc(CNC(=O)/C=C/[C@H]2O[C@@H](n3cnc4c(NC(=O)c5ccccc5)ncnc43)[C@H](O)[C@@H]2O)cc1	14.2	10.1	3.3	1.8
Cc1noc(C)c1NC(=O)Nc1ccc2c(c1)C(=O)N([C@@H](C)CO)C[C@@H](C)[C@@H](CN(C)C(=O)Nc1ccc(F)cc1)OCCCC[C@@H](C)O2	-1.2	0.8	-1.3	-1.2
Cc1ccc(S(=O)(=O)Nc2ccc3c(c2)CC(=O)N([C@H](C)CO)C[C@@H](C)[C@@H](CN(C)S(=O)(=O)c2cccs2)O3)cc1	-3.9	-4.3	-1.7	-12.6
Cc1ccc(S(=O)(=O)N(C)C[C@H]2Oc3ccc(NC(=O)C4CCCCC4)cc3C(=O)N([C@H](C)CO)C[C@@H]2C)cc1	-6.0	-6.3	-0.3	-14.8
O=C(C[C@@H]1C=C[C@@H](NC(=O)c2ccncc2)[C@@H](CO)O1)NCCc1ccncc1	3.2	0.7	-1.6	-1.2
O=C(C[C@H]1C[C@@H]2c3cc(NC(=O)c4ccc5c(c4)OCO5)ccc3O[C@@H]2[C@H](CO)O1)NCc1ccc(Cl)cc1	-12.2	-29.5	12.3	0.7
Cc1noc(C)c1NC(=O)N[C@H]1CC[C@@H](CC(=O)Nc2ccc(-c3ccccc3)cc2)O[C@@H]1CO	-2.3	-4.3	1.4	-23.8
O=C(C[C@@H]1CC[C@H]2[C@@H](COC[C@@H](O)CN2C(=O)c2ccncc2)O1)NC1CCC1	-1.2	8.5	-6.2	0.2
O=C([C@H]1O[C@@H](n2ccc(=O)[nH]c2=O)[C@H](O)[C@@H]1O)N1CCN(c2ccc(Cl)cn2)CC1	-1.7	3.1	-5.6	0.9
CCCCNC(=O)C1(C)CCN1C(=O)c1cccc(OC(C)=O)c1C (configuration not stated)	-0.5	8.3	-2.5	-0.6
Cc1ccc2nc(C(Cl)(Cl)Cl)nc(N/N=C/c3ccc([N+](=O)[O-])cc3)c2c1	8.6	12.2	-3.7	-1.3
C[C@@H]1CN([C@H](C)CO)C(=O)c2cc(NC(=O)Nc3ccc4c(c3)OCO4)ccc2O[C@@H]1CN(C)Cc1ccc(C(F)(F)F)cc1	0.2	-13.0	6.1	3.4

Further entries follow:
SMILES	rRNA inh HTS	rRNA inh HTS OD600	rRNA inh HTS RFP	AF4-AF9 inh
C[C@@H]1CCCCO[C@@H](CN(C)S(=O)(=O)c2ccccc2)[C@@H](C)CN([C@@H](C)CO)C(=O)c2cc(NC(=O)c3ccccc3)ccc2O1	-3.3	6.9	-0.5	-1.0
C[C@H]1CN([C@@H](C)CO)C(=O)c2cccc(N(C)C)c2O[C@@H]1CN(C)Cc1ccc(C(=O)Nc2ccccc2N)cc1	1.4	5.5	-2.5	3.9
OC(c1ccc(F)c(F)c1)c1ncc(-c2ccc(F)cc2)[nH]1 (configuration not stated)	2.2	5.5	5.6	7.3
CC(C)CC#Cc1ccc2c(c1)O[C@H](CN(C)C(=O)c1ccccc1)[C@H](C)CN([C@@H](C)CO)S2(=O)=O	-2.3	5.6	-2.4	2.7
CCOC(=O)C1=CCN(S(=O)(=O)c2cccc(Cl)c2)C1c1ccc(Br)cc1 (configuration not stated)	-1.7	0.9	0.1	-1.6
Cc1ccccc1-c1ccc([C@@H]2[C@@H](CO)N3C(=O)CN(C(=O)Nc4ccc(F)cc4)C[C@H]23)cc1	-1.0	-43.2	22.0	-0.2
CCOC1=C2[C@@H](CN(S(=O)(=O)c3ccc(C)cc3)[C@H]2c2ccccc2F)[C@H]2C(=O)N(c3ccccc3)C(=O)[C@H]2C1	3.1	6.5	4.8	0.2
O=C(C[C@H]1CC[C@H]2[C@@H](COC[C@H](O)CN2C(=O)c2ccccc2F)O1)NCc1ccccc1	-1.1	11.1	6.0	-1.3
C[C@@H]1CN([C@H](C)CO)C(=O)c2cc(NC(=O)Nc3ccc(C(F)(F)F)cc3)ccc2O[C@@H]1CN(C)Cc1ccc(C(=O)O)cc1	2.1	-3.5	-1.8	-0.6
COc1ccccc1S(=O)(=O)N[C@@H]1CC[C@H](CCNC(=O)C2CCCC2)O[C@H]1CO	1.4	9.3	3.2	-16.8
OC(c1cc(F)cc(Cl)c1)c1ncc(-c2ccc3ccccc3c2)[nH]1 (configuration not stated)	-49.1	-75.8	-15.4	-2.1
CN(C)C(=O)c1cccc(-c2ccc([C@@H]3[C@H]4CN(S(C)(=O)=O)CCCCN4[C@H]3CO)cc2)c1	4.4	9.7	2.0	-5.4
CN1C(=O)c2cc(NC(=O)c3ccccc3Cl)ccc2OC[C@@H]2O[C@@H](CC(=O)O)CC[C@@H]21	1.8	1.3	-1.5	-1.4
C[C@@H]1CCCCO[C@H](CN(C)C(=O)Nc2ccc(F)cc2)[C@H](C)CN([C@@H](C)CO)C(=O)c2cc(NC(=O)NC3CCCCC3)ccc2O1	0.4	-3.4	0.7	-1.4
C[C@@H]1CCCCO[C@@H](CN(C)S(=O)(=O)c2cccs2)[C@H](C)CN([C@@H](C)CO)C(=O)c2cc(NC(=O)C3CCCCC3)ccc2O1	-0.4	-5.0	-1.1	-2.0
CCc1nc2ccc(C(=O)N(CC)CCN(C)C)cn2c1N(CC)C(=O)NCCc1ccccc1	13.4	19.9	-0.4	1.7
COCC(=O)N1C[C@H]2CON(C)[C@H]2C[C@H]1c1ccc(N2CCCCC2)cc1	21.6	14.4	4.8	1.5
C[C@@H](NC(=O)[C@@H]1[C@@H](CO)[C@@H]2Cn3c(cccc3=O)[C@@H]2N1Cc1ccncc1)c1ccccc1	0.9	2.9	0.3	0.3
CN1[C@@H]2Cn3c(ccc(-c4cccnc4)c3=O)[C@H]1[C@@H](C(=O)N1CCC(Cc3ccccc3)CC1)[C@@H]2CO	-0.1	1.9	-2.1	2.9
Cc1noc(C)c1NC(=O)N(C)C[C@@H]1OCCCC[C@H](C)Oc2ccc(NC(=O)NC3CCCCC3)cc2C(=O)N([C@H](C)CO)C[C@H]1C	-0.8	8.8	-3.3	-0.9
C[C@@H]1CN([C@H](C)CO)C(=O)c2cccc(NC(=O)c3ccncc3)c2O[C@@H]1CN(C)C(=O)Nc1ccccc1	3.9	10.4	0.6	-0.5
CS(=O)(=O)c1ccc(Nc2nc(C(N)Cc3ccccc3)cs2)cc1 (configuration not stated)	4.0	12.2	3.0	0.1
O=C(C[C@@H]1CC[C@@H]2[C@H](COC[C@H](O)CN2Cc2ccc(F)cc2)O1)NCCc1ccccc1	-6.1	-7.4	-3.2	-2.1
C[C@@H]1CN([C@H](C)CO)C(=O)c2cccc(NS(=O)(=O)c3ccc(F)cc3)c2O[C@H]1CN(C)S(=O)(=O)c1cn(C)cn1	2.3	-0.1	-1.7	-0.5
CCCNC(=O)C1(C)CCN1C(=O)Cc1ccc(-c2ccccc2)cc1 (configuration not stated)	2.0	-20.6	-1.7	-4.2

No new results follow: two of the compounds above.
SMILES	rRNA inh HTS	rRNA inh HTS OD600	rRNA inh HTS RFP	AF4-AF9 inh
CS(=O)(=O)c1ccc(Nc2nc(C(N)Cc3ccccc3)cs2)cc1 (configuration not stated)	4.0	12.2	3.0	0.1
O=C(C[C@@H]1CC[C@@H]2[C@H](COC[C@H](O)CN2Cc2ccc(F)cc2)O1)NCCc1ccccc1	-6.1	-7.4	-3.2	-2.1

Next section:
SMILES	rRNA inh HTS	rRNA inh HTS OD600	rRNA inh HTS RFP	AF4-AF9 inh
CCOC(=O)C1(C)CCN1C(=O)c1cc(F)ccc1C (configuration not stated)	4.8	5.1	-2.3	1.0
O=C(Nc1ccccc1)N1C[C@@H]2[C@H](c3ccccc31)[C@@H](CO)N2CC1CCCC1	-4.4	-3.2	1.0	-5.2
CCCNC(=O)N(C)C[C@H]1Oc2ncc(-c3ccccc3)cc2C(=O)N([C@H](C)CO)C[C@H]1C	4.2	7.2	-2.2	-0.2
CCC(=O)Nc1ccc2c(c1)C(=O)N(C)C[C@@H](OC)[C@@H](C)CN(Cc1ccccn1)[C@@H](C)CO2	0.3	2.8	-2.2	0.2
Cc1nc2c(c(=O)c3ccccc3n2C)c(=O)n1C1CCCC1	-12.8	3.9	7.4	8.7
Cc1noc(C)c1NC(=O)Nc1ccc2c(c1)C(=O)N([C@H](C)CO)C[C@H](C)[C@@H](CN(C)S(=O)(=O)c1ccc(Cl)cc1)OCCCC[C@H](C)O2	-4.3	-8.8	0.2	-1.5
CC(C)NC(=O)Nc1ccc2c(c1)CC(=O)N([C@H](C)CO)C[C@H](C)[C@H](CN(C)C)O2	0.5	0.6	-1.7	-1.3
C[C@@H]1CN([C@H](C)CO)C(=O)c2cc(C#CCc3ccccc3)cnc2O[C@H]1CN(C)CC1CCCC1	-0.2	5.3	2.8	15.9
C[C@@H]1CN([C@@H](C)CO)C(=O)c2cccc(NS(=O)(=O)c3cn(C)cn3)c2O[C@@H]1CN(C)S(=O)(=O)c1ccccc1	0.2	-2.7	-1.3	0.9
Cc1ccc(S(=O)(=O)Nc2ccc3c(c2)CC(=O)N([C@@H](C)CO)C[C@@H](C)[C@H](CN(C)Cc2ccncc2)O3)cc1	-6.7	-6.9	4.8	0.5
Cn1cnc(S(=O)(=O)N[C@@H]2CC[C@H](CC(=O)Nc3ccc(-c4ccccc4)cc3)O[C@@H]2CO)c1	-1.0	-6.6	0.9	-2.6
CC(C)NC(=O)Nc1ccc2c(c1)C(=O)N(C)[C@@H]1CC[C@@H](CC(=O)NCc3ccc(F)cc3)O[C@@H]1CO2	1.9	1.8	0.8	0.5
COC(=O)C1=C(C)N(Cc2cccc(C(F)(F)F)c2)C(=NCc2ccc(OC)cc2)NC1c1cccc(Cl)c1 (configuration not stated)	-54.3	-73.3	-13.4	3.6
C[C@H]1CN([C@@H](C)CO)C(=O)c2cc(C#Cc3ccccc3F)cnc2O[C@@H]1CN(C)C(=O)C1CC1	-4.8	-9.7	-0.1	1.7
Cc1noc(C)c1NC(=O)Nc1cccc2c1O[C@@H](CN(C)Cc1ccc(-c3ccccc3)cc1)[C@H](C)CN([C@@H](C)CO)C2=O	-5.5	-4.1	-0.4	-0.2
C[C@@H]1CN([C@@H](C)CO)C(=O)Cc2cc(N(C)C)ccc2O[C@@H]1CN(C)S(=O)(=O)c1ccccc1	-1.6	-10.0	0.6	2.0
C[C@@H]1CN([C@H](C)CO)C(=O)CCCn2nncc2CO[C@@H]1CN(C)C(=O)Nc1cccc(F)c1	1.6	-2.2	0.4	1.4
C[C@H]1CN([C@@H](C)CO)S(=O)(=O)c2ccc(-c3cncnc3)cc2O[C@@H]1CN(C)C(=O)NC1CCCC1	-0.3	8.7	1.4	-2.4
COc1ccccc1CNC(=O)C[C@@H]1C=C[C@@H](NC(=O)CC2CC2)[C@@H](CO)O1	2.1	8.1	-2.1	-1.5

Source: PubChem

This is a subset. The share of hits here may be higher or lower than overall.
